Screening data (PubChem)
AmpC inh no det: Promiscuous and Specific Inhibitors of AmpC Beta-Lactamase (assay without detergent) | P00811 | 1.8% of 71,000 active | AID 585, 2007 | Potency, µM (top dose mostly 28.7 µM), without a hit: at the top dose activity change, negative = inhibition | AmpC nitrocefin hydrolysis, absorbance 480 nm, no detergent; potencies from a single point are estimates; active = falling curve, for most hits resting on a single point; inconclusive = weak or doubtful change; inactive = flat or rising curve; note: % of control where 0% means no effect; about half of the hits show no inhibition at the top dose; a quarter of the inactives give rising signals
Target sequence (P00811 whole entry, looked up): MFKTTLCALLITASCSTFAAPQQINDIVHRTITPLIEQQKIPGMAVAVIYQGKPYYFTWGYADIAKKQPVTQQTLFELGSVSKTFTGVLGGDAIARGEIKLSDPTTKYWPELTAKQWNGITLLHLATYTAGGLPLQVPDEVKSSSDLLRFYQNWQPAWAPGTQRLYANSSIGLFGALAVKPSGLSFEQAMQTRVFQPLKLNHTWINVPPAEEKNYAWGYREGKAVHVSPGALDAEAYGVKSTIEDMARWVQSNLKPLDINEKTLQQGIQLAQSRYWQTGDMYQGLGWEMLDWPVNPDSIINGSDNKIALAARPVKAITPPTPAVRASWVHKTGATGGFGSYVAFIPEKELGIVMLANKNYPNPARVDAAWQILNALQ
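AmpC in 20 mM phosphate buffer pH 7.0 was preincubated 15 min at room temperature with compounds. Nitrocefin (800 uM stock) was then added and hydrolysis followed at 480 nm every 20 s for 4 min.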
Active calls of the source: *; ? = inconclusive; [ ] = dose if it differs, or a comment. Potency is the fitted concentration of half-maximal effect.

No.	smiles	AmpC inh no det
1	COc1ccc2nc(NC(=O)C(NS(=O)(=O)c3cccs3)C(C)C)sc2c1 (stereo not drawn)	-15%
2	CCS(=O)(=O)N1CCN(C(=O)c2cccs2)CC1	0%
3	O=S(=O)(c1cccc(-c2nnc(SCc3ccc(Cl)cc3)o2)c1)N1CCCCC1	7%
4	COc1cccc(-c2csc(NC(C)=O)n2)c1	14%
5	Nn1c(CSc2nc3ccccc3o2)nnc1CSc1nc2ccccc2o1	78%
6	CSc1nnc(-c2cc3ccccc3cc2O)n1C	-9%
7	CCC1(C(=O)OC)NC(c2ccco2)C2C(=O)N(c3ccc(C)cc3)C(=O)C21 (stereo not drawn)	18%
8	N#CC1=C(N)Oc2n[nH]c(-c3ccc(F)cc3)c2C1c1cccnc1 (stereo not drawn)	-6%
9	CCN(CC)CCNC(=O)c1c(O)c2c([nH]c1=O)CCCC2	-7%
10	O=C(NCCCN1CCN(C2CCCCC2)CC1)Nc1ccccc1C(F)(F)F	-10%
11	CCCCC1CCC(c2nc(-c3ccccn3)no2)CC1 (stereo not drawn)	57%
12	CN(C)S(=O)(=O)N1CCC(C(=O)O)(c2ccccc2)CC1	-2%

Next part (5 carried over from the part before).
No.	smiles	AmpC inh no det
8	N#CC1=C(N)Oc2n[nH]c(-c3ccc(F)cc3)c2C1c1cccnc1 (stereo not drawn)	-6%
9	CCN(CC)CCNC(=O)c1c(O)c2c([nH]c1=O)CCCC2	-7%
10	O=C(NCCCN1CCN(C2CCCCC2)CC1)Nc1ccccc1C(F)(F)F	-10%
11	CCCCC1CCC(c2nc(-c3ccccn3)no2)CC1 (stereo not drawn)	57%
12	CN(C)S(=O)(=O)N1CCC(C(=O)O)(c2ccccc2)CC1	-2%
13	CCC[C@@H]1C[C@@]1(CCC)C(NC(=O)c1ccco1)c1ccc(Cl)cc1 (stereo partly drawn)	?
14	COc1ccccc1NC(=O)c1oc2ccccc2c1NC(=O)c1ccco1	-7%
15	NC1=NC2(CCCCC2)n2c(nc3ccccc32)N1	-17%
16	COCCn1c(=O)[nH]c2cc(C(=O)NC3CCCCCC3)ccc2c1=O	-1%
17	C=CCSC1=N/C(=C\c2ccsc2)C(=O)S1	-16%
18	Cc1cc(C)n(C(=O)Cc2cn3ccsc3n2)n1	-8%
19	COc1ccc(S(=O)(=O)N2CCN(C(=O)c3cccs3)CC2)cc1	28%
20	COc1cc(C(=O)NCCC(=O)NCCN2CCCCCC2)cc(OC)c1OC	13%
21	COc1ccc(C(C(O)C(=O)c2c[nH]c3ccccc23)N2CCN(c3ccc(OC)cc3)CC2)cc1 (stereo not drawn)	7%
22	CCOC(=O)CSC1=C(C#N)C(c2ccc(F)cc2)C(C(C)=O)=C(C)N1 (stereo not drawn)	23%
23	CCOC(=O)N1CCC(N2C(=O)c3ccccc3C2Nc2cc(OC)c(OC)c(OC)c2)CC1 (stereo not drawn)	97%
24	COC(=O)c1ccccc1NC(=O)c1ccc(NS(C)(=O)=O)cc1	19%
25	O=C(O)CN1C(=O)CC(Cc2ccccc2)C1=O (stereo not drawn)	-5%
26	CCS(=O)(=O)N1CCC(NC(=O)C2CCCCC2)CC1	-12%
27	C[C@]12Cc3cn4c(nc3C=C1CC[C@H]1[C@@H]2CC[C@@]2(C)[C@H]1CC[C@@]2(O)C#N)nc1ccccc14	20%
28	CN(C)c1ccc(-c2nccc(NCc3ccccc3)n2)cc1	56%
29	Cc1ccc(C(C(=O)NC2CCCCC2)N2CCOCC2)cc1 (stereo not drawn)	31%
30	NC(=O)c1c(NC(=O)c2cccs2)sc2c1CCCCCC2	32%
31	Cc1ccc(S(=O)(=O)N2CCN(S(C)(=O)=O)C2c2ccccc2)cc1 (stereo not drawn)	30%
32	Cc1ccc(NC(=O)c2ccccc2F)nc1	1%
33	CN(C)Cc1cc(C(=O)O)cc(CN(C)C)c1O	3%[5.75 µM]
34	CCC1Oc2ccc(Cl)cc2N(CC(=O)O)C1=O (stereo not drawn)	-8%
35	Cn1nnc2cc(C(=O)NCc3ccco3)ccc21	-16%
36	Cc1cccc(-n2nc3c(c2NC(=O)c2ccc(Br)o2)CSC3)c1C	-9%

Given with each value named: entries from further up
31. Cc1ccc(S(=O)(=O)N2CCN(S(C)(=O)=O)C2c2ccccc2)cc1 (stereo not drawn)
  AmpC inh no det: 30%
29. Cc1ccc(C(C(=O)NC2CCCCC2)N2CCOCC2)cc1 (stereo not drawn)
  AmpC inh no det: 31%
35. Cn1nnc2cc(C(=O)NCc3ccco3)ccc21
  AmpC inh no det: -16%
25. O=C(O)CN1C(=O)CC(Cc2ccccc2)C1=O (stereo not drawn)
  AmpC inh no det: -5%

The list continues.
No.	smiles	AmpC inh no det
37	COc1ccccc1S(=O)Cc1ccc(C(=O)NCCc2ccc(Cl)cc2)o1 (stereo not drawn)	73%
38	COc1cc(N)ccc1Cc1ccc(N)cc1OC	6%
39	CCS(=O)(=O)NCc1ccc2[nH]c3c(c2c1)CCCC3	0%
40	O=C(CCCNS(=O)(=O)c1cccc2nsnc12)N1CCCCC1	0%
41	CCN(C(=O)CSc1nnc(Cn2nnc3ccccc32)o1)c1nc(-c2ccccc2)cs1	1%
42	COc1ccc(-c2ncc3ccccn23)cc1	-17%
43	Cc1cc(C)n(-c2nc3ccccc3n3nnnc23)n1	-8%
44	CCOC(=O)N1CCN(C(=O)CSc2nnc(Cn3c(=O)sc4ccccc43)n2C)CC1	4µM*[single pt active]
45	CCN1CCCC1CN=Cc1c(O)n(-c2ccccc2)c(=O)c2ccccc12 (stereo not drawn)	8%
46	Cc1ccc(NC(=O)CN(c2ccc3c(c2)OCO3)S(=O)(=O)c2c(C)n[nH]c2C)cc1	27%
47	COc1ccc(-c2nnn(Cc3nc(N)nc(N4CCCCC4)n3)n2)cc1	51%
48	C=CCSc1nc(N)c(C#N)c(-c2ccccc2)c1C#N	-22%
49	Cn1c(=O)c2[nH]c(Nc3ccccc3)nc2n(C)c1=O	-11%
50	CCOc1ccccc1NC(=O)Cn1c(=O)n(CCC(=O)NC2CCCC2)c(=O)c2ccccc21	23%
51	O=C(c1ccco1)N(CCCN1CCOCC1)c1nc(-c2ccc(Cl)cc2)cs1	127%
52	CCOC(=O)CNC(=O)CSc1nnc(-c2ccco2)n1Cc1ccco1	0%
53	CCCCSC1=C(C#N)C(c2ccccc2C)C(C(=O)OCC)C(=O)N1 (stereo not drawn)	-3%
54	Cc1cc(C)c2c(c1)c(C)cc1nnc(SCC(=O)NCc3ccco3)n12	36%
55	CC1CC(C)CN(Cc2nc3c(c(=O)n(C)c(=O)n3C)n2CCN2CCOCC2)C1 (stereo not drawn)	100%
56	O=C(c1ccc([N+](=O)[O-])cc1)[C@@H](Br)[C@@H](Br)c1ccnc2ccccc12	-15%[5.75 µM]
57	CCC(C)NCC(=O)Nc1ccc(-c2nc3cc(NC(=O)CNC(C)CC)ccc3o2)cc1 (stereo not drawn)	47%
58	COc1ccc(-c2noc(CSc3ccccc3)n2)cc1OC	105%
59	Cc1nn(-c2ccc(F)cc2)c2nc(N)c(C#N)c(-c3cccs3)c12	-19%
60	COC(=O)c1ccc(-n2nnnc2SCC(=O)Nc2ccccc2OC)cc1	-9%
61	COCCn1nnnc1C(c1ccc(OC)c(OC)c1)N1CCN(c2nc3ccccc3s2)CC1 (stereo not drawn)	148%
62	Cc1cc(C)c(C(=O)CSc2n[nH]c(=O)n2C2CC2)cc1C	21%
63	O=c1cc(-c2ccc(O)cc2)oc2c([C@H]3O[C@@H](CO)[C@@H](O)[C@@H](O)[C@@H]3O)c(O)cc(O)c12	-14%[12.8 µM]
64	COc1ccc(C(=O)N2CCN(c3cccc(Cl)c3)CC2)c(OC)c1	96%
65	O=C1c2ccccc2S(=O)(=O)N1Cc1nc2ccccc2s1	17%
66	COc1ccccc1-c1cc(C(=O)N2CCN(c3ccc(F)cc3)CC2)no1	26%
67	Cc1ccccc1-n1c(O)c(C=Nc2ccc3c(c2)OCO3)c(=O)[nH]c1=O	8%
68	COc1ccc(CCn2c(C)cc3c(c2=O)C(c2ccncc2)C(C#N)=C(N)O3)cc1OC (stereo not drawn)	24%
69	CCOC(=O)N1CCC(NC(=O)c2cc(S(=O)(=O)N3CCc4ccccc43)cn2C)CC1	91%
70	CCC(=NCc1ccco1)c1c(O)n(-c2ccccc2)c(=O)[nH]c1=O	2%
71	CCOC(=O)c1cnn2c(C)cc(-c3ccccc3)nc12	8%
72	CCOC(=O)c1sc(NC(C)=O)c(C(=O)OCC)c1C	64%

Down the list, as entered above:
AmpC inh no det, compounds 61–71 → 148%, 21%, -14%[12.8 µM], 96%, 17%, 26%, 8%, 24%, 91%, 2%, 8%

Continued:
No.	smiles	AmpC inh no det
73	FC(F)(F)c1cc(CN2CCCC3(CCNCC3)C2)cc(C(F)(F)F)c1	42%
74	Cc1cc(C)nc(-n2nc(C)cc2NC(=O)c2cccc(S(=O)(=O)N(C)C)c2)n1	66%
75	O=C(NC12CC3CC(CC(C3)C1)C2)N1CCC(n2nnc3ccccc32)CC1	53%
76	COc1ccc(-c2nc3cnc(N4CCN(C)CC4)nc3n(Cc3ccc(F)cc3)c2=O)cc1	82%
77	COc1ccccc1Nc1nc(N)nc(CN2CCC(Cc3ccccc3)CC2)n1	60%
78	O=C(NC1CCCCC1)C1CCCN(S(=O)(=O)c2cccs2)C1 (stereo not drawn)	24%
79	Cn1c(=O)c2c(nc(CN3CCN(c4ccccc4)CC3)n2Cc2ccccc2Cl)n(C)c1=O	117%
80	Cc1ccc(-n2nc3c(c2NC(=O)c2ccc4c(c2)OCO4)CSC3)cc1	-9%
81	CCOC(=O)CSc1nnc(Cc2cc(=O)[nH]c(=O)[nH]2)n1-c1ccc(Cl)cc1	22%
82	CN(C)C=Nc1ncc2c3ccccc3n(CCN(C)C)c2c1C#N	40%
83	COCCn1c(=O)c(-c2ccc(F)cc2)nc2cnc(Nc3cccc(OC)c3)nc21	-1%
84	COCCNC(=O)c1cnn2c(C(F)(F)F)cc(-c3ccc4c(c3)OCO4)nc12	8%
85	Cc1cc(C(=O)CSc2nnc(-c3ccco3)o2)c(C)n1Cc1ccco1	28%
86	O=C(Nc1nnc(-c2ccncc2)s1)C1CCCO1 (stereo not drawn)	-9%
87	Cc1occc1C(=O)Nc1nccs1	-15%
88	C1CCC2(CC1)OCC1(CO2)COC2(CCCCC2)OC1	6%
89	Cc1cnn(C(=S)NCc2ccco2)c1	0%
90	CCc1nc(C)ccc1OCC(=O)NCCCN(C)C	6%
91	O=C(C1CCC(Cn2c(=S)[nH]c3ccccc3c2=O)CC1)N1CCOCC1 (stereo not drawn)	21%
92	CCOc1ccc(OCC)c(NC(=O)CSc2nnc(Cn3cnc4ccccc43)n2C)c1	83%
93	CCOC(=O)COn1c(=O)c(=O)n(OC)c2ccccc21	-15%
94	N#Cc1nc(COc2ccc(Cl)cc2)oc1N1CCCCCC1	14%
95	NCCC[C@@H](CC(=O)N[C@@H]1CCCC[C@H]1C(=O)N[C@H](CC(=O)N[C@@H](CCC(=O)O)CC(=O)O)Cc1ccccc1)NC(=O)C[C@H](Cc1ccccc1)NC(=O)[C@@H]1CNCC[C@H]1N	152%
96	Cc1cc(C(=O)N2CCN(C(c3ccccc3)c3ccccc3)CC2)on1	118%
97	CNc1ncnc2c1ncn2[C@@H]1O[C@H](CO)[C@@H](O)[C@@H]1O	3%[12.8 µM]
98	O=C(Nc1ccc2snnc2c1)N1CCOCC1	-6%
99	CS(=O)(=O)NCc1csc(-c2ccccc2)n1	2%
100	CC(C)(CO)N1CCN(C(=S)Nc2ccccc2)CC1	-1%[5.75 µM]
101	CCC(Oc1ccccc1)C(=O)Nc1ccc(-c2nnc(-c3ccco3)o2)cc1 (stereo not drawn)	54%
102	Cc1cccc(OCC(=O)Nc2cccc(-c3nnc(-c4ccccc4)o3)c2)c1C	-9%
103	O=C(O)CC[C@@H](C(=O)O)N1C(=O)c2ccccc2C1=O	3%[5.75 µM]
104	O=C(OCc1cc2ccccc2[nH]c1=O)C1CCCCC1	18%
105	CN(C)C(CNC(=O)CCCc1c[nH]c2ccccc12)c1ccco1 (stereo not drawn)	28%
106	CCOP(C)(=O)C1(C(=O)OCc2ccccc2)CC1 (stereo not drawn)	-4%
107	CCOC(=O)CSc1nnc(CNC(=O)c2cccs2)n1-c1cc(OC)ccc1OC	24%
108	Cc1ccsc1C=Nc1c(C)n(C)n(-c2ccccc2)c1=O	8%
109	O=C(CCC1CCCC1)Nc1ccc(Br)cn1	-13%
110	Cc1ccc(CN2CCN(CC(=O)NCc3ccc(Cl)cc3)C2=O)cc1	56%
111	CC(C1CC1)N(C(=O)c1ccccc1O)c1ccccc1 (stereo not drawn)	-7%
112	O=C(O)c1ccc(CSCc2ccco2)cc1	-5%
113	Cn1cnnc1Sc1nc2c(c(=O)n(C)c(=O)n2C)n1Cc1ccccc1Cl	0%
114	C[C@@H]1C[C@H]2[C@H]3C[C@@H](F)C4=CC(=O)C=C[C@]4(C)[C@@]3(Cl)[C@@H](O)C[C@@]2(C)[C@@H]1C(=O)COC(=O)C(C)(C)C	-1%[12.8 µM]
115	CCCCCn1c(SCC2CCCO2)nc2cc(C(=O)N3CCC(C(N)=O)CC3)ccc2c1=O (stereo not drawn)	151%
116	COc1cccc(-c2ccc3ncnc(NCCNC(C)=O)c3c2)c1	108%
117	CCOc1ncccc1C(=O)OCc1nnc(-c2ccccc2)o1	29%
118	C[C@@]12CC[C@H]3[C@H](CC=C4C[C@@H](O)CC[C@@]43C)[C@@H]1CC[C@@H]2N(CCO)CCO	5%[5.75 µM]

The list is partial; rates above refer to the full screens.
